From PubChem BioAssay
Autofluor counter: counter-screen for toxin protease inhibitors: compound fluorescence. fluorescence intensity (no concentration beside the values). compound autofluorescence counterscreen, microsphere flow cytometry; active compounds read high. AID 624483. hit rate 3.1% among 360,000;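 active = at least 3 SD above the mean of all compounds, about 16000 in these data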;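 also: 100 nL of 1 mM stock went into each well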
Starred values were filed as active, the others as inactive. A portion of the library; the hit share may differ from the screen's.

structure | Autofluor counter
O=c1[nH]c2cc3c(cc2cc1C(c1nnnn1C1CCCC1)N1CCCc2ccccc21)OCCO3 (stereo unspecified) | 9631
N#Cc1ccc(-c2nc3ccc(Cl)cn3c2Cc2ccccc2C(F)(F)F)cc1 | 6540
CCOCCCNC(=O)c1ccc(CN2CCc3ccccc3C2)cc1 | 3317
CCOC1=C2[C@H](c3ccc(C)cc3)N(S(=O)(=O)c3ccc(C)cc3)C[C@H]2n2c(=O)n(-c3ccccc3)c(=O)n2C1 | 6269
COC(=O)C[C@H]1C[C@H]2c3cc(NC(=O)C4CCOCC4)ccc3O[C@H]2[C@@H](CO)O1 | 3835
Cn1cc(CN2CCC(C(=O)NC(c3ccc(-c4ccccc4)cc3)c3cnccn3)CC2)c2ccccc21 (stereo unspecified) | 3976
Cc1n[nH]c(=O)n(N=Cc2cccs2)c1=O | 3436
CCC(=O)N1CCCC(C(=O)Nc2ccc3cn[nH]c3c2)CC1 (stereo unspecified) | 2927

Going on with the list.
structure | Autofluor counter
COc1ccc(NC(=O)C2(C)CCN2CCOc2ccc(C)cc2)cc1OC (stereo unspecified) | 3795
OCc1ccccc1-c1cnc2sc(NCc3ccc(F)cc3)nn12 | 3745
COCCNC(=O)C1(C)CCCN(C(=O)c2ccc3ccccc3c2)C1 (stereo unspecified) | 3252
O=c1[nH]c2ccccc2n1C1CCN(C(c2cccs2)c2nnnn2-c2ccc3c(c2)OCCO3)CC1 (stereo unspecified) | 6418
c1cc(-c2ccoc2)n2ccnc2c1 | 3550
COc1ccc(C(O)c2nc(-c3ccc(F)c(Cl)c3)cs2)cc1 (stereo unspecified) | 4020
CCc1nc2ccc(C(=O)Nc3cccc(OC)c3)cn2c1N(C)CCCc1ccccc1 | 2818
CCN(CC)C(=O)C1=C(C)N(CCCN2CCCC2=O)C(=O)C(CC(=O)NCCCCc2ccccc2)C1 (stereo unspecified) | 3890

More results follow:
structure | Autofluor counter
C[C@]12CC[C@@H](O)CC1=CC(=O)C1C2CC[C@]2(C)C(=O)[C@H](O)CC12 (stereo partly specified) | 3837
COC(=O)c1ccc2nc(-c3cccc(Br)c3)c(Cc3ccccc3)n2c1 | 6144
CC1(C)CC(=O)C2=C(C1)NC(=O)CC2 | 4876
O=CNc1cc(-c2cccc(F)c2)cn2c(-c3ccc(F)cc3)cnc12 | 4031
Cc1ccc(-c2cnc(C(O)c3cc(F)cc(Cl)c3)[nH]2)cc1 (stereo unspecified) | 4005
CN1OC[C@@H]2CN[C@H](c3cccc(Oc4ccccc4)c3)C[C@@H]21 | 4070
CNC[C@@H]1OCc2ccccc2-c2c(n(C)c3ccccc23)C(=O)N([C@H](C)CO)C[C@H]1C | 3799
Nc1ccc(Nc2ccncc2)cc1 | 3538

A portion from further up, as a working copy:
structure | Autofluor counter
O=CNc1cc(-c2cccc(F)c2)cn2c(-c3ccc(F)cc3)cnc12 | 4031
Cc1ccc(-c2cnc(C(O)c3cc(F)cc(Cl)c3)[nH]2)cc1 (stereo unspecified) | 4005
CN1OC[C@@H]2CN[C@H](c3cccc(Oc4ccccc4)c3)C[C@@H]21 | 4070
CNC[C@@H]1OCc2ccccc2-c2c(n(C)c3ccccc23)C(=O)N([C@H](C)CO)C[C@H]1C | 3799
Nc1ccc(Nc2ccncc2)cc1 | 3538

Carrying on.
structure | Autofluor counter
Cc1cccc(NC(=O)COc2cccc3c2CCNC3=O)c1 | 4020
CCc1nc2cc(NC(=O)C3(C)CCCN(C(C)C)C3)ccc2o1 (stereo unspecified) | 2990
O=C(NCC1=C(c2ccc3ccccc3c2)C[C@@H]2CC[C@H]1N2Cc1ccco1)c1ccncc1 | 3623
CC(C)NC(=O)N1Cc2cc(C(=O)NC3CCCC3)nc(-c3cccc(-c4cccnc4)c3)c2[C@H]1CCO | 5524
CC(NC(=O)c1cc(COc2ccc(-n3cncn3)cc2)on1)c1ccc(F)cc1 (stereo unspecified) | 2931
Cc1ccc(Nc2n[nH]c(=S)s2)c(C)c1 | 3348
C[C@@H]1CN([C@@H](C)CO)C(=O)CCCn2nncc2CO[C@@H]1CN(C)C(=O)c1cc(-c2ccccc2)on1 | 3787
COc1cc(CC(=O)N2CCN(S(=O)(=O)c3ccc(C(C)C)cc3)CC2)cc(OC)c1OC | 4148

5 compounds already listed, ordered by number of heavy atoms, ascending.
structure | Autofluor counter
Cc1ccc(Nc2n[nH]c(=S)s2)c(C)c1 | 3348
CCc1nc2cc(NC(=O)C3(C)CCCN(C(C)C)C3)ccc2o1 (stereo unspecified) | 2990
CC(NC(=O)c1cc(COc2ccc(-n3cncn3)cc2)on1)c1ccc(F)cc1 (stereo unspecified) | 2931
O=C(NCC1=C(c2ccc3ccccc3c2)C[C@@H]2CC[C@H]1N2Cc1ccco1)c1ccncc1 | 3623
C[C@@H]1CN([C@@H](C)CO)C(=O)CCCn2nncc2CO[C@@H]1CN(C)C(=O)c1cc(-c2ccccc2)on1 | 3787

(more compounds)
structure | Autofluor counter
C[C@@H]1CCCCO[C@H](CN(C)C(=O)Nc2cccc3ccccc23)[C@@H](C)CN([C@H](C)CO)C(=O)c2cc(N(C)C)ccc2O1 | 3764
COc1ccc(-c2csc(C(C)(O)c3cccc(F)c3)n2)cn1 (stereo unspecified) | 3801
CC1(C(=O)NS(=O)(=O)C2CC2)CCCN(C(=O)c2ccccc2C(F)(F)F)C1 (stereo unspecified) | 2807
CCOC(=O)[C@]12CCC=C1N(Cc1ccccc1)C(=O)[C@H](CC(=O)NCC1CCCCC1)C2 | 4195
Cc1ccc(S(=O)(=O)NC(=O)C2(C)CCN2C(=O)c2cccc(F)c2)cc1 (stereo unspecified) | 2871
O=C(Nc1cccc2ccccc12)N1Cc2ccccc2-n2nncc2C1 | 2817
CCc1nc2ccc(C(=O)N(C)CCCN(C)C)cn2c1N(CC)CCOC | 3746
COc1ccc(CNC(=O)CCCn2c(=O)c3cccn3c3cccnc32)cc1 | 3557

New compounds follow:
structure | Autofluor counter
COc1ccc(OCCNC(=O)c2ccc3nc(C)c(N(C)Cc4ccc(NC(C)=O)cc4)n3c2)cc1 | 3039
CC(C)(C)c1ccc(C(=O)OCC(=O)Nc2cccc(S(=O)(=O)NC3=NCCC3)c2)cc1 | 2980
CNc1cncc(-c2ccccc2CO)n1 | 2800
CCOC(=O)[C@]12CCC=C1N(Cc1ccco1)C(=O)[C@H](CC(=O)N1CCCCC1)C2 | 4751
COc1cc(C=C2Cc3ccccc3C2=O)cc(OC)c1OC | 5482
CCCCC[C@H](C)N1C[C@@H](COCc2ccccc2)Oc2cc(N3CCC[C@H]3C(N)=O)ccc2S1(=O)=O | 4194
O=C(NC1CCCCC1)N1Cc2cc(-c3cccc(F)c3)ccc2-n2nncc2C1 | 4300
COc1ccc(CC(=O)Nc2ccc3c(c2)OC2(CCCC2)O3)c(OC)c1 | 3555

Carrying on:
structure | Autofluor counter
Cc1nn(CC(=O)Nc2cccc(O)c2)c(=O)c2ccccc12 | 2743
CS(=O)(=O)c1ccc(C2=C(CNC(=O)c3cccs3)[C@H]3CC[C@@H](C2)N3Cc2ccccc2)cc1 | 3773
Nc1ccn([C@@H]2O[C@H](CNCc3ccc(C#CCCO)cc3)[C@@H](O)[C@H]2O)c(=O)n1 | 3804
CCOC(=O)[C@]12CCC=C1N(CCC1=CCCCC1)C(=O)[C@H](CC(=O)NCc1ccccc1)C2 | 4328
CC1(Oc2ccc(CC#N)cc2)CCN(Cc2ccc(-n3ccnc3)cc2)C1 (stereo unspecified) | 3033
Cc1ccsc1C(=O)OCC(=O)Nc1cccc(S(=O)(=O)N2CCCCC2)c1 | 4238
O=C1N2CCCCC1(c1ccccc1)CCCC2 | 5959
CCc1nc2ccc(C(=O)NCCCn3ccnc3)cn2c1N(C)Cc1ccc(Cl)cc1 | 4062

Next section:
Structure	Autofluor counter
Clc1ccc(-c2nc3ccc(Br)cn3c2Cc2ccccc2)cc1	3972
COC(=O)[C@]12CCCCC=C1N(Cc1ccc(Cl)cc1Cl)C(=O)[C@H](CC(=O)NCCc1ccccc1OC)C2	6255
O=C1NC(Cc2ccc(O)cc2)c2nc3cc(F)c(F)cc3c(=O)n2-c2ncccc21 (stereo unspecified)	2911
O=Nc1c(-c2ccccc2)n(O)[n+]([O-])c1-c1ccccc1	4165
CC1=C(C(=O)N2CCCCCC2)CC(CC(=O)NC(c2ccccc2)c2ccccc2)C(=O)N1Cc1ccccc1 (stereo unspecified)	4373
O=C1NC[C@@H](CCCCN2C[C@H](Cc3ccc(O)cc3)N(CCc3ccccc3)C(=O)C2=O)N(Cc2ccccc2)C1=O	4871
CN(C)c1ccc(-c2ccnc3c2CC(C)(C(=O)NCc2ccc(F)c(F)c2)O3)cc1 (stereo unspecified)	3545
CC(C)(C)CNC(=O)C1(C)CCN1C(=O)Cc1ccc(-c2ccccc2)cc1 (stereo unspecified)	3598
CC1=C(C(=O)N2CCOCC2)CC(CC(=O)NCCc2ccccn2)C(=O)N1Cc1ccccc1 (stereo unspecified)	5914
CN1C(=O)[C@H]2[C@@H](c3ccc(C(F)(F)F)cc3)N[C@]3(CCCN(Cc4ccc(C(F)(F)F)cc4)C3=O)[C@H]2C1=O	3765
CCOC(=O)c1cc2cc(OC)ccc2n1C1CCN(CCc2ccccc2)CC1	5037
O=C1NC[C@H](CCCCN2C[C@H](Cc3ccccc3)N(CC3CCCCC3)C(=O)C2=O)N(CCc2ccccc2)C1=O	4731
CCC(C)CNC(=O)c1[nH]c(C(F)(F)F)nc1-c1ccccc1 (stereo unspecified)	4325
CCc1nc2c(OCc3ccc(Cl)cc3)cccn2c1N(C)C(=O)c1cccs1	2796
CS(=O)(=O)c1ccc(C2=C(CNC(=O)c3ccncc3)[C@H]3CC[C@@H](C2)N3Cc2ccco2)cc1	3655

Next entries follow:
Structure	Autofluor counter
CN(C)c1ccc(CNc2nc3ccccc3n2C)cc1	3562
O=C(c1[nH]c(C(F)(F)F)nc1-c1ccccc1)N1CCN(c2ccccc2)CC1	4363
OC(c1ccc(F)c(F)c1)c1nc(-c2ccoc2)cs1 (stereo unspecified)	4008
COc1ccc(C(C)(NC(C)=O)c2nc(-c3cncnc3)cs2)cc1 (stereo unspecified)	2971
CCc1nc2c(OCC(=O)N(C)C)cccn2c1N(C=O)Cc1ccc(OC)cc1	3291
O=C(Nc1c2c(nn1-c1ccccc1)CS(=O)(=O)C2)c1ccc(Br)o1	3938
CC1(C)N=C(N)NC(=NCCCOc2ccc([N+](=O)[O-])cc2)N1	4336
C[C@H](NC(=O)c1ncn2c1C(=O)NC[C@H]2C)C(=O)OC(C)(C)C	2902
Cc1ccc(N2CC(C(=O)NC3CCCCCC3)CC2=O)cc1 (stereo unspecified)	3763
C/C=C/c1cccc(-c2nc(C(=O)NC3Cc4ccccc4C3)cc3c2[C@@H](CCO)N(C(C)=O)C3)c1	6404
Cc1cc(C(=O)N2CCCC(Nc3ccc(C)c(C)c3)C2)nc(C)n1 (stereo unspecified)	3979
NC(=S)NN=Cc1nccc2c(C(F)(F)C(F)(F)C(F)(F)F)cccc12	3760
CC(=O)OC[C@@H]1CN(Cc2ccccc2)C[C@H](n2cnc3c(NCc4ccco4)ncnc32)O1	3594
COc1ccc(C(=O)N/N=C/c2ccccn2)cc1	3133
CC(NC(=O)COC(=O)c1ccccc1O)c1ccccc1 (stereo unspecified)	3917

Later entries
Structure	Autofluor counter
CNC(=O)C1Cc2c(-c3cccc(F)c3)ccnc2O1 (stereo unspecified)	3630
Cn1c2nc(=O)n(-c3ccccc3)c(=O)c-2nc2c1CCCC2	2961
COc1ccc(F)cc1-c1cc(NC(C)=O)c2ncc(-c3cccc(C(F)(F)F)c3)n2c1	4098
Cc1ccc(-c2ccc(CN3C(C)C(=O)N(Cc4cn(CC5CCCCC5)nn4)CCS3(=O)=O)cc2)cc1 (stereo unspecified)	3793
COc1ccc(C(=O)N2CCC2(C)C(=O)NC(C)C)c(OC)c1 (stereo unspecified)	3799
CCCNC(=O)c1cc(C2CCCCN2C(=O)OCCF)on1 (stereo unspecified)	3555
CCc1cc(-c2cnnn2Cc2ccc3ccccc3c2)ccc1-c1cn(CC(C)C)nn1	3768
CC1=C(C(=O)N2CCOCC2)CC(CC(=O)NCc2ccco2)C(=O)N1Cc1ccc(F)cc1 (stereo unspecified)	3269
COc1ccc(C(=O)N[C@H](C(=O)Nc2cccc(S(=O)(=O)N3CCOCC3)c2)C(C)C)cc1	2953
Fc1ccc(-c2nc3ccc(Br)cn3c2Cc2cccc(F)c2)cc1	15043
COc1ccc(C(=O)OCC(=O)Nc2cc(C)on2)cc1F	3740
CCCCCC(=O)N1C[C@H](n2cc(COC(=O)c3ccccc3)nn2)[C@@H](O)C[C@@H]1c1ccc(OC)cc1	2782
CCCCCCN1CCN(C2CN(Cc3ccccc3)S(=O)(=O)C2)CC1 (stereo unspecified)	6188
COCOCCn1cc(CN2CCS(=O)(=O)N(Cc3ccc(-c4ccc(Cl)nc4)cc3)C(C)C2=O)nn1 (stereo unspecified)	2816
CC(C)c1cccc(C(C)C)c1NC(=O)c1ccc(-c2cc(Cl)ccc2Cl)o1	3416

More structures
Structure	Autofluor counter
CCCCNC(=O)C1(C)CCN1C(=O)c1sccc1C (stereo unspecified)	2987
CCN(CC)C(=O)c1cccc(-c2csc(C(C)(O)c3cccc(OC)c3)n2)c1 (stereo unspecified)	3530
O=C(NCc1ccc(Cl)nc1)c1csc([C@@H]2C[C@H](O)[C@@H](CO)O2)n1	3099
Cc1cccc(CNC(=O)c2sc(=O)n(Cc3ccccc3C)c2C)c1	4213
CSc1nc(COC(=O)NC(C)C)c(COC(=O)NC(C)C)n1Cc1ccccc1	5905
CS(=O)(=O)N(CC(=O)N1CCOCC1)c1cccc(Cl)c1	2809
CCCCNC(=O)C1(C)CCC(=O)N1CCCn1ccnc1 (stereo unspecified)	6180
Cc1ccc(-c2nc3ccc(Br)cn3c2Cc2ccccc2)cc1	6219
Cn1ncc2c1NC(c1ccc(F)cc1)SCC2=O (stereo unspecified)	3700
CCc1nc2c(OCc3ccc(F)cc3)cccn2c1N(C)C(=O)c1ccco1	4067
CC(C)C[C@H]1CN(CCCC[C@@H]2CNC(=O)C(=O)N2Cc2ccccc2)C(=O)C(=O)N1CCC1CCCCC1	5184
CC1=CC(=O)C(Sc2ccc(C)cc2)=CC1=O	3543
C[C@@H]1CN([C@@H](C)CO)C(=O)c2cc(Br)cnc2O[C@H]1CN(C)C(=O)Cc1cccnc1	3896
CC1=CNC(=O)CC(C)(C)C1	6500
